2A firefly: Primary qHTS Assay for Foot and Mouth Disease Virus Antivirals against NCGC Sytravon and CBC Compound Libraries: Firefly Luciferase Signal | HEK cells with a luciferase reporter of 2A StopGo recoding | Potency, µM (titrated, usually from 57.5 µM), inactives show at the top dose signal change, negative = less light | 120,000 compounds, 0.23% hits | AID 1745856, 2022; active = well fitted falling curve with a large enough effect; inconclusive = small, poorly fitted or top-dose-only effect; inactive = no such curve, though single readings can be large or run the other way; further: nearly all actives have a fitted effect of over 60% in size; overnight with compound
2A Renilla: Primary qHTS Assay for Foot and Mouth Disease Virus Antivirals against NCGC Sytravon and CBC Compound Libraries: Renilla Luciferase Signal; HEK cells with a luciferase reporter of 2A StopGo recoding; Potency, µM (highest dose often 57.5 µM), for inactives: at the highest dose signal change, negative = less light; 120,000 compounds, 0.32% hits; AID 1745857, 2022; active means well fitted falling curve with a large enough effect; inconclusive means small, poorly fitted or top-dose-only effect; inactive means no such curve, though single readings can be large or run the other way; further: nearly all actives have a fitted effect of over 55% in size; overnight with compound
* = called active by the depositor; u = inconclusive; & = joins results of further samples; [ ] = remark or other dose. On the % scale 0 is the no-effect control and ±100 the full control effect; potency means the concentration at half of the fitted maximal effect.

Preview, seven compounds:
SMILES	2A firefly	2A Renilla
Cc1ccc(SCC(=O)Nc2ccc3oc(-c4ccccc4F)nc3c2)cc1	135%[activator]	46%[activator]
N=C1C(c2nc3ccccc3c(=O)[nH]2)=C(O)CN1c1ccc(Cl)cc1Cl	104%[activator]	47%[activator]
COc1ccc(/C(O)=C2\C(=O)C(=O)N(CCN3CCNCC3)C2c2ccc(OC)cc2)cc1 (stereo not given)	5%	6%
Cc1ccccc1N1CC(C(=O)Nc2ccccc2C(=O)N2CCN(c3ccccc3)CC2)CC1=O (stereo not given)	16%	9%
Cc1cccc(OC(=O)CSc2nnc(-c3cccs3)o2)c1C	-18%	58%[activator]
CCc1nn(CC(=O)Nc2c(C)cc(C)cc2C)c(=O)c2cc3sccc3n12	15%	-8%
COc1cc2c(cc1OC)-c1c(c(C(=O)NCc3ccncc3)nn1-c1ccc(Cl)cc1)C2	u	u

The list itself, from the first entry:
SMILES	2A firefly	2A Renilla
Cc1ccc(SCC(=O)Nc2ccc3oc(-c4ccccc4F)nc3c2)cc1	135%[activator]	46%[activator]
N=C1C(c2nc3ccccc3c(=O)[nH]2)=C(O)CN1c1ccc(Cl)cc1Cl	104%[activator]	47%[activator]
COc1ccc(/C(O)=C2\C(=O)C(=O)N(CCN3CCNCC3)C2c2ccc(OC)cc2)cc1 (stereo not given)	5%	6%
Cc1ccccc1N1CC(C(=O)Nc2ccccc2C(=O)N2CCN(c3ccccc3)CC2)CC1=O (stereo not given)	16%	9%
Cc1cccc(OC(=O)CSc2nnc(-c3cccs3)o2)c1C	-18%	58%[activator]
CCc1nn(CC(=O)Nc2c(C)cc(C)cc2C)c(=O)c2cc3sccc3n12	15%	-8%
COc1cc2c(cc1OC)-c1c(c(C(=O)NCc3ccncc3)nn1-c1ccc(Cl)cc1)C2	u	u
O=C(NCc1cccc(Cl)c1)c1cc2c(s1)-c1ccccc1SC2	135%[activator]	32%[activator]
CCCCC(=O)NCC1CC2c3ccccc3C1c1ccccc12 (stereo not given)	0%	-6%[1.06 µM]
O=C(Nc1nc(C23CC4CC(CC(C4)C2)C3)cs1)c1ccc(=O)[nH]c1	10%	-9%
Cc1ccc(-n2nc3c(N4CCC(C(=O)NC5CCCCC5)CC4)nnc(C)c3c2C)cc1	-13%	-6%
c1ccc2[nH]c(CSc3ccc4c(c3)OCCO4)nc2c1	-12%	u
CCC(=O)Nc1ccccc1-c1nc2ccccc2n(CC(=O)Nc2ccccc2OC)c1=O	-27%	-7%
O=C(/C(Br)=C/Nc1ccc(Cl)c(Cl)c1)C(F)(F)F	-7%	1%
N#CC1=C(N)OC2=C(C(=O)CCC2)C1c1ccc(-c2ccc(Cl)cc2Cl)o1 (stereo not given)	25%	-18%
COc1cc(NS(=O)(=O)c2ccc3c(c2)OCC(C(=O)N2CCCC2)O3)cc(OC)c1 (stereo not given)	u	93%[activator]
COc1cccc(C2c3c(-c4ccccc4O)n[nH]c3C(=O)N2Cc2cccnc2)c1 (stereo not given)	20%	0%
Cc1nc2ccc(C(=O)NCc3ccccc3CN(C)C)cc2nc1C	6%	-7%
Cc1ccc(NS(=O)(=O)c2ccc3c(c2)C(C(C)C)C(=O)N3)cc1C (stereo not given)	-13%	206%[activator]
COc1ccc(OC)c(NS(=O)(=O)c2ccc3[nH]c4c(c3c2)CCCCC4)c1	-12%	228%[activator]
Cc1ccc(-n2c(=O)c3c(c4cc(C)ccc4n3C)n(Cc3ccc(F)cc3)c2=O)cc1	-3%	10%
COc1cc(OC)cc(OC(C)C(=O)Nc2cc(Cl)ccc2C)c1 (stereo not given)	10%	14%
CCOC(=O)C(Cc1cc(C)c(CC(C(=O)OCC)C(=O)OCC)cc1C)C(=O)OCC	9%	0%
CC12CC3CC(C)(C1)CC(C(=O)NCc1ccccn1)(C3)C2	6%	18%
COC(=O)c1ccc(Oc2nc3c(c(=O)n(C)c(=O)n3C)n2Cc2ccc(Cl)c(Cl)c2)cc1	7%	8%

Reprinted at random: 4 records from the list.
SMILES	2A firefly	2A Renilla
CCCCC(=O)NCC1CC2c3ccccc3C1c1ccccc12 (stereo not given)	0%	-6%[1.06 µM]
O=C(Nc1nc(C23CC4CC(CC(C4)C2)C3)cs1)c1ccc(=O)[nH]c1	10%	-9%
COc1cc(NS(=O)(=O)c2ccc3c(c2)OCC(C(=O)N2CCCC2)O3)cc(OC)c1 (stereo not given)	u	93%[activator]
COc1cc2c(cc1OC)-c1c(c(C(=O)NCc3ccncc3)nn1-c1ccc(Cl)cc1)C2	u	u

(list continues)
SMILES	2A firefly	2A Renilla
Cc1ccc2nc(CN3CCN(S(=O)(=O)c4ccc(C(C)C)cc4)CC3)oc2c1	0%	32%[activator]
Cc1oc(-c2ccc(Cl)cc2)nc1CS(=O)CC(=O)NCc1ccccc1Cl (stereo not given)	7%	8%
Cc1nnc(N2CCOCC2)c2c1nnn2Cc1ccccc1Cl	13%	-5%
c1ccc(Nc2ccc(-c3ccc(Nc4ccccc4)cc3)cc2)cc1	17%	7%
CCCCC12CN3CC(C)(CN(C1)C3c1ccccn1)C2=O (stereo not given)	-16%	-14%
COc1ccc2c(C)c(CCC(=O)Nc3ccc(NC(C)=O)cc3)c(=O)oc2c1	11%	9%
O=C(NC(O)C(Cl)(Cl)Cl)NC(O)C(Cl)(Cl)Cl (stereo not given)	9%	5%&-5%
CC(Sc1nc(-c2ccccc2)c(-c2ccccc2)o1)C(=O)NC1CC1 (stereo not given)	8%	18%
O=C(C1CCN(S(=O)(=O)c2cccs2)CC1)N1CCN(c2ccccc2F)CC1	1%	-15%
CC(C)(C)C1CCC(C(=O)NNC(=O)c2cccc(Cl)c2)CC1 (stereo not given)	30%	13%
COc1ccccc1-n1ncc2c(=O)[nH]c(SCC(=O)Nc3cccc(F)c3)nc21	-14%	-5%
Cc1c(C)c2ccc(OCC(=O)NCc3ccccn3)cc2oc1=O	29%	13%
O=C(Nc1nc2cc3c(cc2s1)OCCCO3)c1cc(Br)ccc1Cl	131%[activator]	10%
CCN1CCN(c2cc(C)c3cc(NC(=O)c4cc(OC)cc(OC)c4)ccc3n2)CC1	89%[activator]	10%
Cc1cc(Br)ccc1NC(=O)c1nc2ccccc2nc1N1CCCC1	21%	10%
CN(CCCNC(=O)c1cnc2ccccc2n1)S(C)(=O)=O	116%[activator]	-8%
Cc1ccc(C)n1-c1nnc(N2CCC(C(=O)NCc3ccc(F)cc3)CC2)s1	8%	0%
O=C(COCc1cc(-c2ccco2)on1)Nc1cccc(O)c1	16%	-5%
CCn1c2ccccc2c2nnc(N3CCN(c4cccc(Cl)c4)CC3)nc21	-16%	-13%
CSC1CCCCC1(O)CSc1nc(-c2ccc(C)cc2)cc(-c2ccccc2)c1C#N (stereo not given)	-10%	-9%
C=C(C)COc1ccc2c(=O)c(Oc3ccc(C(=O)OCCC)cc3)coc2c1	4%	-10%
CC(C)Cc1ccc(S(=O)(=O)N2CCC(c3ccncc3)CC2)cc1	-20%	4%
Clc1ccc(CCNC(c2ccc(Cl)cc2)c2nnc(-c3ccccc3)o2)cc1 (stereo not given)	6%	178%[activator]
CCn1nc(C)c(CNC(=O)Nc2ccc(OC)c(OC)c2)c1C	12%	-6%
COc1ccc(-n2nc3cc(C)c(NC(=O)c4ccc(-c5ccc(Cl)cc5)o4)cc3n2)cc1	58%[activator]	19%

3 of the compounds above, field by field:
> O=C(C1CCN(S(=O)(=O)c2cccs2)CC1)N1CCN(c2ccccc2F)CC1
  2A firefly = 1%
  2A Renilla = -15%
> CC(C)(C)C1CCC(C(=O)NNC(=O)c2cccc(Cl)c2)CC1 (stereo not given)
  2A firefly = 30%
  2A Renilla = 13%
> COc1ccccc1-n1ncc2c(=O)[nH]c(SCC(=O)Nc3cccc(F)c3)nc21
  2A firefly = -14%
  2A Renilla = -5%

(cont.)
SMILES	2A firefly	2A Renilla
Cc1cccc(OCC(=O)Nc2ccc3c(c2)nc(CCNC(=O)c2ccco2)n3C)c1	2%	-19%
CCOc1cc(C(=O)NCc2nc(-c3cccc(C)c3)no2)cc(OCC)c1OCC	-12%	-11%
C=C(C)Cn1c(SCC(=O)c2ccc(Br)cc2)nc2sc3c(c2c1=O)CCCC3	-7%	2%
COC(=O)c1c(-c2csc(NC3CC3)n2)c(C)n(C(C)C)c1C	-1%	16%
O=C(NCCS(=O)(=O)N1CCN(c2ccc(F)cc2)CC1)c1ccccc1Br	-11%	-3%
CC(=O)c1cccc(NC(=O)CSc2nc3c(c(=O)[nH]2)CCC3)c1	-1%	-11%
CC(NC(=O)c1cccc(F)c1)c1cccc(NS(C)(=O)=O)c1 (stereo not given)	9%	-6%
CC(=O)c1cn(CC(=O)NC2CCCCCCC2)c2ccccc12	9%	1%
CCCCNC(=O)NC(C(N)=O)C(N)=O	37%[activator]	13%
COc1ccc(CNC(=O)c2cc3c(=O)[nH]c4ccccc4c3s2)cc1	-6%	21%
O=C(COc1ccccc1Cl)N1CCN(CCc2ccccn2)CC1	-2%	1%
CSc1cccc(NC(=O)CC(c2cccs2)N2Cc3ccccc3C2=O)c1 (stereo not given)	-26%	116%[activator]
O=C(CCS(=O)(=O)c1ccc(F)cc1)Nc1ccccc1-c1ccccc1	14%	10%
CCS(=O)(=O)NCC(c1ccco1)N1CCN(c2ccccc2)CC1 (stereo not given)	-1%	10%
Cc1cnc(C(=O)Oc2ccc(Br)cc2)cn1	-8%	2%
Cc1c(C(=O)Nc2nccs2)nnn1-c1ccccc1	40%[activator]	14%
COc1ccc(C(=O)Nc2ccc(-c3nc4ncccc4o3)cc2C)cc1Br	-9%	-10%
Cn1cc(C(=O)N2CCN(C(=O)c3ccccc3)CC2)c2ccccc21	-13%	-13%
Cc1ccc(-n2nc3c(N4CCCC(C(=O)NCCN(C)C)C4)nnc(C)c3c2C)cc1 (stereo not given)	-13%	-18%
O=C(CC1Sc2ccc(C(F)(F)F)cc2NC1=O)Nc1cc(Cl)cc(Cl)c1 (stereo not given)	-7%	-11%
Cc1cc(C)c(C=Nc2cc([N+](=O)[O-])ccc2C)c(C)c1	14%	-1%
COc1ccc(OCC(=O)NN=C(C)C)cc1	7%	6%
COc1ccc(OC)c(NC(=O)COc2c(C)cc(C)cc2C)c1	36%[activator]	26%
CCOC(=O)c1cnc2c(ccc3ccccc32)c1Nc1cccc(OC)c1	-5%	-6%
O=C(N/N=C/c1cccc(Br)c1)C1CC1	0%	2%
The list goes on.
SMILES	2A firefly	2A Renilla
Cc1ccc(-c2noc(-c3ccc(N4CCN(C)CC4)c([N+](=O)[O-])c3)n2)cc1	22%	-8%
COc1ccc(C(=O)NC2CCCC2)c(OC)c1	0%	6%
COc1cccc(C(=O)Nc2ccc3oc(-c4ccc5ccccc5c4)nc3c2)c1	70%[activator]	6%
O=C(NCc1cccn1Cc1ccc(Cl)cc1)NC12CC3CC(CC(C3)C1)C2	-6%	-5%
CCn1nccc1-c1cc(C(=O)O)c2cc(C)cc(C)c2n1	-8%	-9%
CC(C)CCNC(=O)C12CC3CC(CC(O)(C3)C1)C2	-6%	-4%
O=C1c2cccc(O)c2C(=O)c2c(O)cccc21	-7%	-5%
COc1cc(OC)cc(-c2nc3nc(C)c(CCC(=O)Nc4ccc(C)cc4)c(C)n3n2)c1	3%	-4%
Cn1c(=O)[nH]c(=O)c2c1nc(N1CCOCC1)n2Cc1cccc(Br)c1	6%	2%
O=C(CSc1nc(Nc2ccccc2)c2ccccc2n1)c1ccc(Cl)cc1	-15%	-3%
Cc1cc(C)c(NC(=O)CSC2=C(C#N)C(c3ccc(C)o3)C3=C(CCCC3=O)N2)c(C)c1 (stereo not given)	-14%	0%
c1cn(C2CCCNC2)cn1 (stereo not given)	-5%	0%
COC(=O)c1[nH]c2ccc(C)cc2c1NC(=O)c1ccccc1F	10%	-1%
CC(C)Cn1nc(C(=O)Nc2nc3c(s2)CCC3)c2ccccc2c1=O	31%[activator]	22%
CCC1CN(C(=O)N2CCC(C(=O)NCCC3=CCCCC3)CC2)c2ccccc2O1 (stereo not given)	31%[activator]	8%
Fc1ccc(Nc2c(-c3c[nH]c4ccccc34)nc3ccccn23)cc1	158%[activator]	34%[activator]
CCc1ccc2nc(N3CCN(C(=O)c4ccco4)CC3)sc2c1	21%	-5%
Cc1ccc(N2C(=O)[C@@H]3CSC(c4ccc(Cl)cc4)N3C2=O)cc1 (stereo not given in full)	0%	-2%
CCS(=O)(=O)Nc1ccc(C2=NN(C(C)=O)C(c3ccco3)C2)cc1 (stereo not given)	118%[activator]	44%[activator]
COc1ccc(S(=O)(=O)N2Cc3ccccc3CC2C(=O)Nc2cc(Cl)ccc2Cl)cc1 (stereo not given)	-4%	0%
O=C(OCc1csc(-c2ccccc2)n1)c1ccc(S(=O)(=O)N2CCOCC2)cc1	1%	-8%
COc1ccc(C(=O)N2CCC(C(=O)Nc3ccc(Cl)cc3)CC2)cc1	34%[activator]	21%
O=C(CSC1c2ccccc2Oc2ccccc21)Nc1ccc(C(=O)O)cc1	0%	-3%
ClC(Cl)(Cl)C1=NC(C(Cl)(Cl)Cl)N=C(c2ccccc2)N1 (stereo not given)	10%	-3%
O=C(Nc1ccc(-c2nc3cc(NC(=O)c4ccccc4Cl)ccc3o2)cc1)c1ccccc1Cl	-18%	-16%
Cc1ccccc1C(C)NC(=O)c1cc(-c2ccccc2)n[nH]1 (stereo not given)	20%	14%

Screens deposited in PubChem BioAssay by National Center for Advancing Translational Sciences (NCATS).

These rows are one share of the data; rates above refer to the full screens.
